Screening data as filed in PubChem.
Rango-impB inh – Rango-importin beta binding inhibition; Q14974; Rango CFP/YFP FRET sensor + importin beta, 45 min; Potency, µM (doses to about 92.2 µM), without a hit: at the top dose inhibition of complex formation; 340,000 tested, 0.031% active; active = rising FRET ratio curve, often small or poorly fitted; inconclusive = mostly compound fluorescence or quenching in the first reads; inactive = flat curves in all reads;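 further: potency means the concentration at half of the fitted maximal effect; 0% = DMSO wells and 100% = buffer wells lacking importin beta; nearly all actives have a fitted effect of over 15% in size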
Target sequence (Q14974 whole entry, looked up): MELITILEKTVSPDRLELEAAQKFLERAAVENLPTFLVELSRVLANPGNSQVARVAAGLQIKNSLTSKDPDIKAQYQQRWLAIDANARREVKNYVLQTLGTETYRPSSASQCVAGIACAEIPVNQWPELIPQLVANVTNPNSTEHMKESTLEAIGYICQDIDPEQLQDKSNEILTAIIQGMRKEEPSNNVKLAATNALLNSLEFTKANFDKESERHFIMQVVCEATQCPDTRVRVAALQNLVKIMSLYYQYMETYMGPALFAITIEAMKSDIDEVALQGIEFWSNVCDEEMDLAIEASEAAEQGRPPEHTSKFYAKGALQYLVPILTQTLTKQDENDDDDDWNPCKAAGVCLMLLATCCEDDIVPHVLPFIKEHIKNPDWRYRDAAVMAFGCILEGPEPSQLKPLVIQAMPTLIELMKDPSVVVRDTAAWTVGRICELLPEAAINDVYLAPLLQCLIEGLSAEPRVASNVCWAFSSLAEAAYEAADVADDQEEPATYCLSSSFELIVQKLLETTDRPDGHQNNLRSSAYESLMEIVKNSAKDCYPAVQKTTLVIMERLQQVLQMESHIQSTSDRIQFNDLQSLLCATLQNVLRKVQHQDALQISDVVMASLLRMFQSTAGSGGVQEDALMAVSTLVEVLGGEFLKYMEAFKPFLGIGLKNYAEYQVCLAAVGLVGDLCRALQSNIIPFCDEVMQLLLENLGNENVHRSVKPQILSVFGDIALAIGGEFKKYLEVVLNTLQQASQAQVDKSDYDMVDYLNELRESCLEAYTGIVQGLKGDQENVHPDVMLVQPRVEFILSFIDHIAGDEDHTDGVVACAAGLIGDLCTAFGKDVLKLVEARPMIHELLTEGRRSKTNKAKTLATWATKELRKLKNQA
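FRET biosensor (snurportin 1 IBB flanked by EYFP and cerulean), 50 nM, with compound 5 min, then 0.125 microM importin beta in PBS, 1 mM DTT, 0.02% Tween-20, 0.1% BSA. CFP/YFP ratio read after 45 min at room temperature; pre-read flags interference.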
GLA inh pH 4.5 – alpha-galactosidase A (human) inhibition, pH 4.5; activity change, negative = inhibition, % at 105 µM; 230,000 tested, under 10 active; P06280; purified enzyme, 4-MU-alpha-Gal fluorescence, pH 4.5; AID 1467; inconclusive = small, poorly fitted or top-dose-only inhibition, or a rising curve; inactive = flat fitted curve, though single readings scatter; no compound was filed as active;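 further: 0% = full activity with enzyme and -100% = basal without enzyme; dose as in the result columns while the protocol names 77 µM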
miR-21 reporter – miR-21 reporter, rising signal; HeLa miR-21 FLuc reporter, luciferase, 48 h; Potency, µM (doses to about 38.3 µM), for the others: top-dose reporter change, positive = more light; 340,000 tested, under 10 active; active = well fitted rising curve with a large enough effect; inconclusive = small, poorly fitted or top-dose-only effect; inactive = no such curve, though single readings can be large or run the other way;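 further: % of control where 0% means no effect; miR-21 action dims this reporter so a rising signal means less miR-21 action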
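HeLa cells stably expressing CMV-driven firefly luciferase with a downstream miR-21 binding sequence, endogenously expressing miR-21, were treated with titrations (up to about 40uM final) for 48 hours at 37 degree Celsius. Luciferase luminescence was read after lysis.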
Rango release inh – inhibition of RanGTP-driven Rango-importin beta dissociation | Biochemical FRET Rango-importin beta, RanGTP-induced dissociation | Potency, µM (top dose mostly 46.1 µM), for the others: top-dose activity change, negative = inhibition | 340,000 tested, 0.071% active; active means falling FRET ratio curve, often poorly fitted, with flat reads before Ran was added; inconclusive means other falling curves, or compound fluorescence or quenching; inactive means flat or rising ratio curve;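 further: potency means the concentration at half of the fitted maximal effect; % of control where 0% means no effect; nearly all actives have a fitted effect of over 45% in size; -100% = wells without RanGTP and RCC1; the record marks most hits as doubtful in a second field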
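Compounds preincubate 5 min with complex of recombinant Rango and importin beta in PBS with 1 mM DTT. Ran (0.6 uM) loaded with 2 mM GTP plus 0.2 uM RCC1 starts dissociation; FRET is recorded 45 min later.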
An asterisk follows results filed as active; ? = inconclusive; · = not tested or not shown; & = joins results of further samples. A portion of the library; the hit share may differ from the screen's.

SMILES	Rango-impB inh	GLA inh pH 4.5	miR-21 reporter	Rango release inh
OC(C#CCN1CCOCC1)(c1ccccc1)C1CCCC1 (configuration not stated)	2.0%	-1	0%	0%
O=C(CN1CCOCC1)c1cccc2ccccc12	3.3%	-9	-9%	-15%
CCOC(C(=O)OCCC[N+](C)(CC)CC)(c1ccccc1)c1ccccc1	0.2%	-6	12%	5%
CC(=O)Nc1ccccc1C(=O)OCc1ccc(F)cc1	-2.1%	7	-32%	21%
O=[N+]([O-])c1cccc(CN2CCN(Cc3ccc(Br)cc3)CC2)c1	-2.2%	3	5%	1%
C=C(CC1CC(O)[C@]2(C)OC3CC4OC5C[C@]6(C)O[C@]7(C)CCC8OC9C[C@]%10(C)OC%11C(C)=CC(=O)OC%11CC%10OC9C[C@@H](C)C8OC7CC6O[C@]5(C)C/C=C\C4OC3CC2O1)C(=O)O (some centres not stated)	-2.5%	-5	-2%	-3%
O=c1[nH]c(=O)n(C2CCCCC2)c(O)c1C1NCCc2ccccc21 (configuration not stated)	2.8%	4	2%	-1%
c1cc(OCCN2CC2)ccn1	-2.1%	·	·	1%
CC1CC=CCC12C(=O)NC(=S)NC2=O (configuration not stated)	-0.5%	·	·	3%
COc1cc(C)cc2oc(=O)c(CC(=O)N3C[C@H]4C[C@@H](C3)c3cccc(=O)n3C4)c(C)c12	0.6%	·	-2%	1%
CCOc1ccccc1-n1c(O)c(C=NCCCn2ccnc2)c(=O)[nH]c1=O	-1.0%	6	8%	-18%
CN(C)[C@@H]1C(=O)C(C(N)=O)=C(O)[C@@]2(O)C(=O)C3=C(O)c4c(O)cccc4[C@@](C)(O)[C@H]3[C@H](O)[C@@H]12	?	1	3%	-6%&3%
CC(C)c1ccc(C2NCc3ccccc3-n3cccc32)cc1 (configuration not stated)	2.9%	·	14%	6%
O=C(c1cn(Cc2ccccc2)c2ccccc12)N1CCCCC1	1.7%	-4	5%	39%
CCCCn1c(=O)c(C(=O)Nc2ccccc2N)c(O)c2ccccc21	-2.5%	·	0%	3%
Cc1cccc(NC(=O)C(C)N2CC=C(c3ccccc3)CC2)c1 (configuration not stated)	-6.4%	-8	-4%	18%
Cc1ccc2c(c1)C1CN(C)CCC1N2C(=O)COc1ccc(N(C)C(=O)C(C)(C)C)cc1 (configuration not stated)	?	-7	-3%	-8%
S=P(Nn1cnnc1)(c1ccccc1)c1ccccc1	0.4%	9	-5%	0%
O=c1[nH]c(=S)n(-c2ccccc2)c(O)c1C=NCc1ccccn1	-1.2%	8	-5%	1%
Cc1sc(NC(=O)CSc2n[nH]c(N)n2)c(C#N)c1C	?	·	·	?
CCC(=O)N1c2ccc(S(=O)(=O)CCC(=O)N3CCC4(CC3)OCCO4)cc2CC1C (configuration not stated)	-0.1%	7	-5%	9%
Cc1ccc(C2=NCC(=O)Nc3ccc(Br)cc32)cc1	3.0%	·	-6%	16%
CCN1CCN(c2cc(N3CCCC3)c([N+](=O)[O-])cc2F)CC1	-1.8%	-10	2%	4%
CCN1C(=O)NC(=O)/C(=C\c2cn(CC(=O)N3CCCCC3C)c3ccccc23)C1=O (configuration not stated)	?	·	-5%	-4%
C=C(c1ccccc1)P(=O)(O)O	0.4%	-6	-5%	13%

Random excerpt: 4 records from the list, in no set order.
SMILES	Rango-impB inh	GLA inh pH 4.5	miR-21 reporter	Rango release inh
CN(C)[C@@H]1C(=O)C(C(N)=O)=C(O)[C@@]2(O)C(=O)C3=C(O)c4c(O)cccc4[C@@](C)(O)[C@H]3[C@H](O)[C@@H]12	?	1	3%	-6%&3%
S=P(Nn1cnnc1)(c1ccccc1)c1ccccc1	0.4%	9	-5%	0%
O=C(c1cn(Cc2ccccc2)c2ccccc12)N1CCCCC1	1.7%	-4	5%	39%
Cc1sc(NC(=O)CSc2n[nH]c(N)n2)c(C#N)c1C	?	·	·	?

Remaining list, next part
SMILES	Rango-impB inh	GLA inh pH 4.5	miR-21 reporter	Rango release inh
O=C1NC(=O)N(c2ccc3c(c2)OCO3)C(=O)/C1=C\c1ccsc1	-1.8%	1	-5%	-6%
O=c1[nH]c(=O)n(Cc2ccc(F)cc2)c(O)c1C=NCCCO	?	0	-5%	0%
O=P(Oc1ccccc1)(Oc1ccccc1)C(O)c1ccccc1 (configuration not stated)	-0.3%	·	·	42%
C=CCn1c(O)c(/C=N/NC(=O)CCCC)c(=O)[nH]c1=S	-1.7%	-1	-4%	-2%
COC(=O)C1=C(c2ccc(C(C)=O)cc2)C[C@@H]2CC[C@H]1N2C(=O)N1CCC(O)CC1	4.3%	·	·	0%
CC(=NCc1ccco1)c1c(O)n(Cc2ccccc2)c(=O)[nH]c1=O	2.2%	3	-2%	0%
O=C(O)CN1C(=O)CN=C(c2ccccn2)c2cc(Cl)ccc21	0.6%	-10	-3%	-11%
CCN(CC)c1ccc(N=Cc2c(O)n(Cc3ccco3)c(=O)[nH]c2=O)cc1	?	4	3%	?
O=C1NC(=O)C(CCc2ccccn2)(Cc2cccc(Cl)c2Cl)C(=O)N1c1ccc(Br)cc1 (configuration not stated)	0.1%	-4	0%	-4%
O=P(C(c1c[nH]c2ccccc12)N1CCOCC1)(N1CCOCC1)N1CCOCC1 (configuration not stated)	3.9%	-2	-1%	-2%
O=[N+]([O-])c1ccc(N2CCNCC2)cc1NCc1ccco1	-1.0%	-28	-9%	8%
Cc1ncc(CC(=O)n2cc(C(=O)c3cc(Cl)ccc3O)cn2)s1	?	4	6%	?
CCCCn1c(=O)c(C(=O)Nc2cccc(C)c2)c(O)c2ccccc21	-0.6%	·	-12%	-12%
C=Cn1ccnc1P(=S)(c1nccn1C=C)c1nccn1C=C	-0.7%	3	-3%	1%
OCC(Cl)CCl (configuration not stated)	-1.2%	·	·	-17%
O=[N+]([O-])c1ccc(Cl)c(Cl)c1Cl	-0.2%	·	·	0%
CN1C(=O)C2C[C@@]3(Br)c4ccccc4N(OOSc4ccccc4)[C@H]3N2C(=O)[C@@H]1Cc1ccccc1 (some centres not stated)	5.7%	·	·	-11%
CCOc1ccc(NC2=NCCCS2)cc1	5.2%	·	-4%	0%
O=C(NC12CC3CC(CC(C3)C1)C2)OC1CN2CCC1CC2 (configuration not stated)	-0.2%	-8	-11%	5%
C=C(COC(C)=O)CC1CC(O)[C@]2(C)OC3CC4OC5C[C@]6(C)O[C@]7(C)CCC8OC9C[C@]%10(C)OC%11C(C)=CC(=O)OC%11CC%10OC9C[C@@H](C)C8OC7CC6O[C@]5(C)C/C=C\C4OC3CC2O1 (some centres not stated)	-2.5%	-13	0%	12%
CC(N)C(=O)OC(C)(C)Cc1ccc(Cl)cc1 (configuration not stated)	2.8%	-4&-3	·	-3%
C=C1C(=O)O[C@H]2[C@H]1[C@H](OC(=O)CC(=O)O[C@@H]1C[C@@H](C)[C@@H]3C=CC(=O)[C@@]3(C)[C@H]3OC(=O)C(=C)[C@H]13)C[C@@H](C)[C@H]1C=CC(=O)[C@]12C	-4.5%	1	?	6%
Oc1ccc2c3c1OC1C(O)CC[C@@]4(O)[C@@H](C2)N(CC2CCC2)CC[C@]314 (some centres not stated)	·	4	0%	·
COc1ccc2cc1Oc1ccc(cc1)C[C@H]1c3cc(c(OC)cc3CCN1C)Oc1c(OC)c(OC)cc3c1[C@@H](C2)N(C)CC3	?	-5	·	-4%
N#Cc1ccc(C(=O)N2Cc3cnnn3-c3ccccc3C2C#N)cc1 (configuration not stated)	0.8%	·	·	13%

Sorted by count of non-hydrogen atoms (high to low): part of the list above
SMILES	Rango-impB inh	GLA inh pH 4.5	miR-21 reporter	Rango release inh
CN1C(=O)C2C[C@@]3(Br)c4ccccc4N(OOSc4ccccc4)[C@H]3N2C(=O)[C@@H]1Cc1ccccc1 (some centres not stated)	5.7%	·	·	-11%
O=[N+]([O-])c1ccc(N2CCNCC2)cc1NCc1ccco1	-1.0%	-28	-9%	8%
OCC(Cl)CCl (configuration not stated)	-1.2%	·	·	-17%

Other results:
SMILES	Rango-impB inh	GLA inh pH 4.5	miR-21 reporter	Rango release inh
COC(=O)C1=C(c2ccc(S(C)(=O)=O)cc2)C[C@@H]2CC[C@H]1N2C(=O)NCCS(C)=O (some centres not stated)	2.3%	·	·	2%
O=c1[nH]c(=S)n(-c2ccc(Cl)cc2)c(O)c1C=Nc1ccc(N2CCOCC2)cc1	?	-16	0%	?
CC(C)C(=O)c1cn(Cc2ccccc2C#N)c2ccccc12	-0.5%	-6	-2%	-10%
C[N+]1(C)[C@@H]2CC(OC(=O)[C@H](CO)c3ccccc3)C[C@H]1[C@@H]1O[C@@H]12 (some centres not stated)	-0.3%&1.1%	-1	-9%&-3%	3%&4%
O=c1cccc2n1CC1CC2CN(Cc2ccc3c(c2)OCO3)C1 (configuration not stated)	4.3%	-7	0%	5%
N#CCP(=S)(c1ccccc1)c1ccccc1	0.2%	-5	2%	-14%
CCOc1ccc2oc(C(=O)NN3C(C)CCCC3C)c(C)c2c1 (configuration not stated)	5.4%	6	0%	-5%
CCC(CC)N1CCN(C(=O)Cc2ccccc2)CC1	-2.3%	-3	-8%	-5%
Oc1c(Br)cc(Br)cc1Br	1.0%	·	·	25%
C=CCN1C(=O)C2(C(C(=O)OCC)=C(N)Oc3ccccc32)c2c1c1ccccc1oc2=O (configuration not stated)	2.0%	-8	-2%	0%
O=c1[nH]c(=S)n(-c2ccccc2F)c(O)c1C=NCc1ccco1	-6.6%	5	-1%	-4%
CCCCn1c(O)c(C(=O)/C=C/c2c[nH]c3ccccc23)c(=O)[nH]c1=O	?	-21	0%	?
Cc1ccc(O)c(CN2CCC3CCC(C3)C2)c1 (configuration not stated)	3.1%	·	·	-12%
CCC12CN3CCN(CC(C3)/C1=N\O)C2	-2.8%	3	-1%	-17%
Cc1c(C(=O)O)cc(-c2ccccc2)n1Cc1ccccc1	-0.1%	·	4%	-5%
CCOC(=O)C1(CCOc2ccccc2)CCN(Cc2ccccc2OC)CC1	2.9%	·	18%	-6%
c1ccc(C[n+]2ccccc2)cc1	0.6%	·	·	-4%
CC(C)C/C(=N/O)c1c[nH]c2ccccc12	-1.0%	3	-1%	0%
CC(C)(C)C(=O)Cn1c(NCCCl)nc2ccccc21	-2.6%	-5	0%	34%
Cc1ccc(C(=O)O)cc1N=Nc1c(O)[nH]c(=O)[nH]c1=O	-2.3%	-4	-2%	-4%
C[C@]12CCC3[C@@H](CCC4=CC(=O)CC[C@@]43C=O)C1CCC2=O (some centres not stated)	-3.4%	·	-2%	-6%
CCCCn1c(NC(=O)c2ccc(Br)o2)c(C(=O)OCC)c2nc3ccccc3nc21	?	?	8%	?
O=C(c1ccc(Cl)cc1)C12CN3CN(CN(C3)C1)C2	4.3%	-6	1%	5%
COc1cccc(N2C(=O)NC(=O)/C(=C/c3ccc4c(c3)Cc3ccccc3-4)C2=O)c1	5.3%	-2	-28%	16%
CN1C(=O)C(=Cc2cccnc2)C(=O)N(C)C1=O	-0.7%	13	1%	-9%

Next records:
SMILES	Rango-impB inh	GLA inh pH 4.5	miR-21 reporter	Rango release inh
CCOC(=O)c1cncn1[C@@H](C)c1ccccc1	0.3%	0	·	20%
CC(=O)c1ccc(OCC(=O)N2CCCC(N(C)Cc3ccccc3)C2)cc1 (configuration not stated)	2.4%	·	-3%	1%
CCC(C)n1c(O)c(C(c2ccccn2)c2c(O)n(C(C)CC)c(=S)[nH]c2=O)c(=O)[nH]c1=S (configuration not stated)	3.1%	-3	0%	-2%
Oc1ccc2c3c1O[C@H]1c4[nH]c5ccccc5c4C[C@@]4(O)[C@@H](C2)N(CC2CC2)CC[C@]314	0.4%	·	·	-15%
COC12C(COC(N)=O)C3=C(C(=O)C(C)=C(N)C3=O)N1CC1C2N1C (configuration not stated)	0.2%	-12	15%	-7%
O=C(COc1ccc(Cl)cc1)NCCc1cnc[nH]1	-0.4%	·	1%	8%
O=C(N/N=C/c1c(O)n(Cc2ccccc2)c(=O)[nH]c1=O)c1ccncc1	?	-3	6%	-24%
Cc1cc2c(cc1C)NP(=S)(c1ccccc1)N2	0.8%	·	·	-8%
COc1ccc(C2(c3cccc(O)c3OC)CCN(C(C)=O)CC2)cc1O	6.3%	·	·	2%
CCn1c(=O)cc(SCC(=O)N2CCC3(CC2)OCCO3)c2ccccc21	-2.7%	-7	-9%	0%
Cn1c2ccccc2c2c(C(=O)N3CCC4(CC3)OCCO4)cn(C3CCCCC3)c(=O)c21	-2.2%	8	14%	?
